UCH37 DUB inh: inhibitors of human UCH37 deubiquitinase, primary screen, biochemical, Ub-AMC cleavage, fluorescence. inhibition, % (test concentration not listed). Ubiquitin carboxyl-terminal hydrolase isozyme L5 (Homo sapiens), Q9Y5K5. AID 588478, 2011. purified proteasome/UCH37. actives 0.33% (n = 330,000);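 active = mean of two replicates above 20%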;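 note: 0% = compound-free wells with enzyme and 100% = wells lacking proteasome; stock transfer was 100 nL into about 20 µL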
Target sequence (Q9Y5K5 whole entry, looked up): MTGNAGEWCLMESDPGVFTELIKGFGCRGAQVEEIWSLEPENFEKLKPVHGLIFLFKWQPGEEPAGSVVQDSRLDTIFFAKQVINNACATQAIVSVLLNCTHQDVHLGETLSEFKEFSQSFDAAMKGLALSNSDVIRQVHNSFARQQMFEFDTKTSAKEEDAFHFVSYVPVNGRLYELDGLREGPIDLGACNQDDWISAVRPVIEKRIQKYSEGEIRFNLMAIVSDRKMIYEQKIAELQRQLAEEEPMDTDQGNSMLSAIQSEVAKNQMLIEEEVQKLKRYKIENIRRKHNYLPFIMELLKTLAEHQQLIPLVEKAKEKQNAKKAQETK
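System: Proteasome-associated human UCH37 deubiquitinase; Input: 0.15 nM proteasome in added enzyme buffer; Also added: Ub-AMC substrate from 1 µM stock; Incubation: 30 min compound-proteasome preincubation then 25 min substrate reaction, room temperature; Detection: fluorescence, ex 355 nm, em 460 nm; Read-out: % inhibition of Ub-AMC cleavage fluorescence; Benchmarks: no-proteasome and no-compound wells.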
Ecoli growth: E. coli growth inhibition, primary screen, OD600. OD600 absorbance (test concentration not listed). actives 0.21% (n = 330,000). Escherichia coli growth, 23 h; active compounds read low. AID 1053175, 2014;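 active = OD600 absorbance below the run mean of sample wells minus 3.6 SD, in any replicate, cut at about 0.56 in these data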;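 note: stock transfer was 300 nL into about 60 µL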
Active calls of the source: *. Only part of the results is shown; rates above refer to the full screens.

`Clc1ccc(C=NNc2nnc(Cl)c3ccccc23)cc1` gave UCH37 DUB inh 2.3 and Ecoli growth 0.73.
`COc1cc(C(C)=NNC(=O)CSc2nc3ccccc3[nH]2)ccc1O` gave UCH37 DUB inh 2.6 and Ecoli growth 0.666.
Screening O=C(COc1ccc(C=NNC(=O)c2ccncc2)cc1)Nc1ccc([N+](=O)[O-])cc1 returned UCH37 DUB inh 1.5 and Ecoli growth 0.71.
Screening Cn1c(SCC(=O)NN=Cc2cccs2)nc2ccccc21 returned UCH37 DUB inh 5.2 and Ecoli growth 0.715.
For COc1ccc(C=NNC(=O)CC(=O)NC2CCCCC2)cc1 the results were UCH37 DUB inh 0.7 and Ecoli growth 0.664.
COc1ccc(C(C)=NO)cc1OC was read as UCH37 DUB inh 0.1 and Ecoli growth 0.658.
`C(=NN=Cc1cccs1)c1cccs1` gave UCH37 DUB inh 2.9 and Ecoli growth 0.633.
Screening S=C(NN=Cc1ccc(Cl)c(Cl)c1)Nc1ccccc1Cl returned UCH37 DUB inh 5.7 and Ecoli growth 0.724.
For CCC(=NNC(=O)c1c(C)nc2ccccn12)c1ccc(Cl)cc1 the results were UCH37 DUB inh 9.0 and Ecoli growth 0.695.
For CCC(=O)NC(=NOCc1ccc(F)cc1)c1nonc1NC(=O)CC the results were UCH37 DUB inh -0.9 and Ecoli growth 0.702.
Screening COc1ccccc1NCc1nnc(SCC(=O)NN=Cc2ccco2)n1-c1ccc(Cl)cc1Cl returned UCH37 DUB inh 4.0 and Ecoli growth 0.727.
CC(=NNC(=O)c1cccnc1)c1ccc(-c2ccccc2)cc1 was read as UCH37 DUB inh 2.1 and Ecoli growth 0.648.
Cc1ccc(S(=O)(=O)N2CCN(CC(=O)NN=Cc3ccccc3OCC(=O)O)CC2)cc1 was read as UCH37 DUB inh 2.0 and Ecoli growth 0.704.
C=CCNC(=O)C(=O)NN=Cc1ccco1 was read as UCH37 DUB inh 6.9 and Ecoli growth 0.747.
Screening COc1cc(Br)cc(C=NNC(=O)Cc2ccc(C(F)(F)F)cc2[N+](=O)[O-])c1O returned UCH37 DUB inh 1.6 and Ecoli growth 0.676.
For CC1SC(=NN=Cc2ccco2)N(Cc2ccc(F)cc2)C1=O (stereo not drawn) the results were UCH37 DUB inh 4.5 and Ecoli growth 0.68.
For Cc1ccc(C=NNC(=O)C[n+]2ccccc2)s1 the results were UCH37 DUB inh 7.0 and Ecoli growth 0.693.
`O=C(Oc1ccc(C=NO)cc1)c1ccccc1Cl` gave UCH37 DUB inh 2.7 and Ecoli growth 0.676.
COC(=O)c1ccc(C=NNC(=O)CC(=O)NCc2cccnc2)cc1 was read as UCH37 DUB inh 0.1 and Ecoli growth 0.663.
`Cc1nn(Cc2ccccc2)c(C)c1C=NNC(=O)CNc1cccc(C(F)(F)F)c1` gave UCH37 DUB inh 0.4 and Ecoli growth 0.696.
`CC(=O)C(=NNc1cccc(Cl)c1)Sc1nnc(-c2ccccc2)n1-c1ccccc1` gave UCH37 DUB inh 3.5 and Ecoli growth 0.697.
`CC(=O)c1sc(NN=Cc2ccc(Br)cc2)nc1C` gave UCH37 DUB inh -10.8 and Ecoli growth 0.65.
`C(=NNC(=Nc1ccccc1)c1ccccn1)c1ccccn1` gave UCH37 DUB inh 2.2 and Ecoli growth 0.642.
For CN(C)N=Cc1cc([N+](=O)[O-])ccc1O the results were UCH37 DUB inh 10.5 and Ecoli growth 0.672.
`CC(C)(C)c1ccc(C=NOCC(=O)NCc2ccc(F)cc2)cc1` gave UCH37 DUB inh 2.7 and Ecoli growth 0.67.
Screening Cc1cccc(NC(=NS(=O)(=O)c2ccccc2)C(F)(F)F)c1 returned UCH37 DUB inh 0.7 and Ecoli growth 0.714.
Screening Nc1nonc1C(=O)NN=Cc1ccc(-c2cccc(C(=O)O)c2)o1 returned UCH37 DUB inh -38.0 and Ecoli growth 0.659.
For O=C(NN=Cc1ccncc1)c1sc2ccccc2c1Cl the results were UCH37 DUB inh 6.6 and Ecoli growth 0.684.
For Cc1[nH]c2ccccc2c1C(=O)CN1CCN(C2CCCCC2)CC1 the results were UCH37 DUB inh 1.8 and Ecoli growth 0.754.
`CCOC(=O)c1sc(NN=Cc2cc(Br)c(O)c(OC)c2)nc1C` gave UCH37 DUB inh -9.1 and Ecoli growth 0.7.
`O=C(NN=Cc1cccc(C(F)(F)F)c1)c1cc2c(s1)-c1ccccc1CC2` gave UCH37 DUB inh -210.1 and Ecoli growth 0.801.
For Cc1nn(-c2ccccc2)c(C)c1C=Nn1c(-c2ccccc2Br)n[nH]c1=S the results were UCH37 DUB inh 2.8 and Ecoli growth 0.624.
For C=CCc1cccc(C=NNC(=O)CCCNc2ccc(C)cc2)c1O the results were UCH37 DUB inh 1.9 and Ecoli growth 0.638.
COc1ccc(C=NNC(=O)CN2CCCc3ccccc32)c(OC)c1 was read as UCH37 DUB inh 3.5 and Ecoli growth 0.67.
`CC(=NNC(=O)CNC(=O)C1COc2ccccc2O1)c1ccc([N+](=O)[O-])cc1` (stereo not drawn) gave UCH37 DUB inh 8.7 and Ecoli growth 0.657.
`COc1cc(C=NNC(=O)CN2CCCCC2)ccc1OCc1ccc(Br)cc1` gave UCH37 DUB inh 2.7 and Ecoli growth 0.707.
For O=C(OCc1cc(Cl)ccc1OC(F)F)c1cc(S(=O)(=O)O)ccc1O the results were UCH37 DUB inh 1.9 and Ecoli growth 0.714.
Screening COc1cc(C=Nn2c(=S)[nH]nc(C)c2=O)cc([N+](=O)[O-])c1O returned UCH37 DUB inh 19.0 and Ecoli growth 0.672.
`CCOC(=O)C1=C(C)N=c2sc(=Cc3ccc(OCC(=O)O)cc3)c(=O)n2C1c1ccc(OC)cc1OC` (stereo not drawn) gave UCH37 DUB inh 9.4 and Ecoli growth 0.658.
`CCN(CC)c1ccc(C=NNC(=O)c2cc3ccccc3[nH]2)cc1` gave UCH37 DUB inh -99.0 and Ecoli growth 0.642.

Ordered by heavy-atom count (falling): ten of the compounds above.
`CCOC(=O)C1=C(C)N=c2sc(=Cc3ccc(OCC(=O)O)cc3)c(=O)n2C1c1ccc(OC)cc1OC` (stereo not drawn) gave UCH37 DUB inh 9.4 and Ecoli growth 0.658.
`CC(=O)C(=NNc1cccc(Cl)c1)Sc1nnc(-c2ccccc2)n1-c1ccccc1` gave UCH37 DUB inh 3.5 and Ecoli growth 0.697.
`CC(=NNC(=O)CNC(=O)C1COc2ccccc2O1)c1ccc([N+](=O)[O-])cc1` (stereo not drawn) gave UCH37 DUB inh 8.7 and Ecoli growth 0.657.
For Cc1nn(-c2ccccc2)c(C)c1C=Nn1c(-c2ccccc2Br)n[nH]c1=S the results were UCH37 DUB inh 2.8 and Ecoli growth 0.624.
For C=CCc1cccc(C=NNC(=O)CCCNc2ccc(C)cc2)c1O the results were UCH37 DUB inh 1.9 and Ecoli growth 0.638.
`CC(C)(C)c1ccc(C=NOCC(=O)NCc2ccc(F)cc2)cc1` gave UCH37 DUB inh 2.7 and Ecoli growth 0.67.
`CCOC(=O)c1sc(NN=Cc2cc(Br)c(O)c(OC)c2)nc1C` gave UCH37 DUB inh -9.1 and Ecoli growth 0.7.
Screening COc1cc(C=Nn2c(=S)[nH]nc(C)c2=O)cc([N+](=O)[O-])c1O returned UCH37 DUB inh 19.0 and Ecoli growth 0.672.
For O=C(NN=Cc1ccncc1)c1sc2ccccc2c1Cl the results were UCH37 DUB inh 6.6 and Ecoli growth 0.684.
For CN(C)N=Cc1cc([N+](=O)[O-])ccc1O the results were UCH37 DUB inh 10.5 and Ecoli growth 0.672.

Going on with the list:
For O=[N+]([O-])c1ccc(C=Nn2c(-c3ccccc3)n[nH]c2=S)cc1 the results were UCH37 DUB inh 4.4 and Ecoli growth 0.666.
CC12CCC(CC1=NOC(=O)c1cccc([N+](=O)[O-])c1)C2(C)C (stereo not drawn) was read as UCH37 DUB inh 0.4 and Ecoli growth 0.658.
For CC(=NNC(=O)CNC(=O)c1ccc2c(c1)OCO2)c1ccco1 the results were UCH37 DUB inh 0.2 and Ecoli growth 0.647.
Cn1c(=S)n(N=Cc2ccc3c(c2)OCO3)c2ccccc21 was read as UCH37 DUB inh 2.4 and Ecoli growth 0.742.
COc1ccc2ccccc2c1C=NN1C(=O)CSC1=S was read as UCH37 DUB inh 3.1 and Ecoli growth 0.718.
For Cc1nc(/C=[N+](\[O-])C(C)(C)C=NO)n(O)c1C the results were UCH37 DUB inh 18.7 and Ecoli growth 0.816.
For Cc1nn(-c2ccccc2Cl)c(Cl)c1C=NNc1cccc(C(=O)O)c1 the results were UCH37 DUB inh 1.1 and Ecoli growth 0.69.
`O=C(Cn1nnc(-c2ccccc2)n1)NN=Cc1cc([N+](=O)[O-])c(Cl)cc1Cl` gave UCH37 DUB inh 2.3 and Ecoli growth 0.711.
`CCCOc1ccc(-c2c(C(=O)NN=Cc3ccc(C)cc3)nnn2-c2nonc2N)cc1` gave UCH37 DUB inh 2.4 and Ecoli growth 0.659.
`O=C(NN=Cc1ccccc1OCc1ccccc1)c1ccco1` gave UCH37 DUB inh 1.0 and Ecoli growth 0.701.
Screening Cn1cc2c(=O)n(N=Cc3ccccc3)cnc2n1 returned UCH37 DUB inh 4.6 and Ecoli growth 0.691.
For CCCNC(=O)C(=O)NN=Cc1ccc(OCc2ccccc2)cc1 the results were UCH37 DUB inh 1.8 and Ecoli growth 0.674.
For Cc1ccc(C=NNC(=O)CNC(=O)COc2ccccc2)o1 the results were UCH37 DUB inh 7.0 and Ecoli growth 0.7.
For CCOc1ccc(Oc2c(C=NNC(=O)C3CC3)c(C)nn2-c2ccccc2)cc1 the results were UCH37 DUB inh 0.0 and Ecoli growth 0.697.
`Cc1ccc(C=NNC(=O)CC2N=C(Cc3ccccc3)NNC2=O)cc1` (stereo not drawn) gave UCH37 DUB inh -5.4 and Ecoli growth 0.762.
`O=C(NN=Cc1ccc(F)cc1)c1ccc(F)cc1` gave UCH37 DUB inh 1.5 and Ecoli growth 0.675.
CCCCCC(=NNC(=O)Nc1ccccc1)c1ccccc1 was read as UCH37 DUB inh 3.8 and Ecoli growth 0.651.
COC(=O)NN=Cc1ccc(OC(=O)/C=C/c2ccco2)cc1 was read as UCH37 DUB inh 1.4 and Ecoli growth 0.64.
For CCC1SC(=NN=Cc2ccco2)N(Cc2ccc(F)cc2)C1=O (stereo not drawn) the results were UCH37 DUB inh 2.6 and Ecoli growth 0.666.
For Cc1ccc(-c2cc(C(=O)NN=Cc3ccccc3)n[nH]2)o1 the results were UCH37 DUB inh -0.2 and Ecoli growth 0.692.
`Cc1[nH][nH]c(=O)c1C=NN1CCOCC1` gave UCH37 DUB inh 5.1 and Ecoli growth 0.725.
CN(C)C=Nc1ncnc2c1cnn2-c1ccc(C(F)(F)F)cn1 was read as UCH37 DUB inh -0.2 and Ecoli growth 0.625.
O=C(NN=Cc1c(F)cccc1Cl)C(=O)N1CCCCCC1 was read as UCH37 DUB inh -1.7 and Ecoli growth 0.7.
For CCOc1ccc(S(=O)(=O)NN=C(C)c2ccc(OC)cc2OC)cc1 the results were UCH37 DUB inh 1.7 and Ecoli growth 0.683.
CC(=NOC(=O)c1ccc(Cl)c(Cl)c1)c1sc(C)nc1C was read as UCH37 DUB inh 6.5 and Ecoli growth 0.771.
`Cc1cccc(-n2c(C)cc(C=NNC(N)=S)c2C)c1` gave UCH37 DUB inh -15.6 and Ecoli growth 0.693.
Screening O=S(=O)(NN=Cc1ccc(-c2ccccc2Cl)o1)c1ccccc1 returned UCH37 DUB inh 5.7 and Ecoli growth 0.678.
NC(=NO)c1cccn1Cc1ccccc1[N+](=O)[O-] was read as UCH37 DUB inh 1.0 and Ecoli growth 0.726.
CC(=O)C(=NNc1cccc(Cl)c1)Sc1cccc2cccnc12 was read as UCH37 DUB inh 7.1 and Ecoli growth 0.714.
Screening COCCCn1c(=C(C#N)C(=O)N2CCOCC2)sc(=Cc2ccccc2OC(F)F)c1=O returned UCH37 DUB inh 1.5 and Ecoli growth 0.72.
Screening Cc1cc(C)cc(OCC(=O)NN=Cc2ccncc2)c1 returned UCH37 DUB inh -1.0 and Ecoli growth 0.639.
For COc1cc(C=NNC(=O)c2cccnc2)ccc1OC(=O)c1ccccc1Cl the results were UCH37 DUB inh -1.6 and Ecoli growth 0.745.
COc1cc(OC)c(OC)cc1C=NNc1ncnc2c1[nH]c1ccc(C)cc12 was read as UCH37 DUB inh -13.2 and Ecoli growth 0.747.
Screening Cc1cccc(C(=O)Nc2ccc(C(=O)NN=Cc3ccc4c(c3)OCO4)cc2)c1 returned UCH37 DUB inh -25.5 and Ecoli growth 0.683.
O=C(NN=Cc1ccncc1)C12CC3CC(CC(C3)C1)C2 was read as UCH37 DUB inh 1.3 and Ecoli growth 0.697.
Screening COc1cc(C=Nn2cnnc2)ccc1OCc1ccccc1 returned UCH37 DUB inh -2.7 and Ecoli growth 0.654.
Screening COc1ccc(C=NNc2nc3ccccc3c(=O)n2-c2ccccc2)cc1OC returned UCH37 DUB inh 1.5 and Ecoli growth 0.721.
Screening COc1ccc(C=NNC(=O)c2ccc3c(c2)OCO3)c(C(=O)O)c1OC returned UCH37 DUB inh 11.5 and Ecoli growth 0.594.
Screening CC(=O)C(=NNc1ccc(Cl)cc1)Sc1nnc(-c2ccccc2)n1-c1ccccc1 returned UCH37 DUB inh -17.8 and Ecoli growth 0.739.
For CC1(C)Cc2c(sc3nc(NN=Cc4ccccc4)[nH]c(=O)c23)CO1 the results were UCH37 DUB inh -474.0 and Ecoli growth 0.695.
COC(=O)c1cc(OC)c(OC)cc1NC(=O)c1cccnc1 was read as UCH37 DUB inh 2.0 and Ecoli growth 0.616.
Cc1cc(C)n2nc(C(=O)NN=C/C=C/c3ccccc3)nc2n1 was read as UCH37 DUB inh 2.3 and Ecoli growth 0.629.

Source: PubChem BioAssay (ICCB-Longwood Screening Facility, Harvard Medical School)
